From PubChem BioAssay
KCNQ2 pot: potentiators of rat KCNQ2 potassium channel. AID 2239, 2010. B-score at 10 µM. CHO-K1 KCNQ2, FluxOR thallium flux fluorescence; active compounds read high. Potassium voltage-gated channel subfamily KQT member 2 (Rattus norvegicus), O88943. 310,000 tested, 0.54% active;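 active means fluorescence ratio B-score at least 3 SD of library B-scores, with initial fluorescence B-score within 3 SD, cut at about 5.3 in these data; same plate scores as AID 2156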;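 further: B-score of peak minus minimum over baseline fluorescence ratio after K+ and Tl+ stimulus; positive B-score means potentiation of KCNQ2 with more thallium influx and brighter signal; only the inactives scoring about 0 or higher are listed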
Target sequence (O88943 whole entry, looked up): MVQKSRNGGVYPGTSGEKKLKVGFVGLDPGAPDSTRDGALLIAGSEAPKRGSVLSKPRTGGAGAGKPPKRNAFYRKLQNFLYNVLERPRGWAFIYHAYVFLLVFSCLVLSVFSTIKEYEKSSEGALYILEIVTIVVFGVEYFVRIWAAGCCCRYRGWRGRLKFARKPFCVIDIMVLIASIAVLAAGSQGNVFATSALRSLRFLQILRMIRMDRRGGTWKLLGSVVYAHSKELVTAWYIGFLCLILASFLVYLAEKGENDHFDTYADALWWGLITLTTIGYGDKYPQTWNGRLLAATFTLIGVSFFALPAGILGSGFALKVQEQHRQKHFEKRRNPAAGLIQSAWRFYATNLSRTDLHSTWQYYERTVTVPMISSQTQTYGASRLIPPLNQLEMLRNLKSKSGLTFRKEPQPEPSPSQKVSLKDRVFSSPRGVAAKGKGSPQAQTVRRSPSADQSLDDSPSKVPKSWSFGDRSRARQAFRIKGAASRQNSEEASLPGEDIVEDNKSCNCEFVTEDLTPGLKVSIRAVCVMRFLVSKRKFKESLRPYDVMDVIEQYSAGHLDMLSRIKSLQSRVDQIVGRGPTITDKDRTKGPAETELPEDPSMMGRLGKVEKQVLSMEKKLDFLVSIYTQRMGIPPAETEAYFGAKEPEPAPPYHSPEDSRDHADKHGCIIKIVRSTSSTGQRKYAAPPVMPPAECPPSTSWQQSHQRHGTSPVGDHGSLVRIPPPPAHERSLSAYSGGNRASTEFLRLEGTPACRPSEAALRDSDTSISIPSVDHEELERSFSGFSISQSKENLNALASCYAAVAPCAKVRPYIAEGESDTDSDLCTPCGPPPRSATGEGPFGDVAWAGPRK
KCNQ2 pot baseline: second read-out of KCNQ2 pot, no call of its own (marks repeat the call); B-score; compound at 10 µM; measured here: initial fluorescence intensity artifact check;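 brightness before thallium and not channel activity; 0 = typical well and far values either way flag optical interference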
Starred values were filed as active, the others as inactive.

The line under a structure holds: KCNQ2 pot, KCNQ2 pot baseline
- C/C(=N\N1CCCCC1c1cccnc1)c1c(O)n(C2CCCCC2)c(=S)[nH]c1=O (stereo unspecified)
→ 0.15, -0.53
- CCOc1cc(C=C2C(=O)NC(=O)NC2=O)ccc1OS(=O)(=O)c1ccccc1
→ 3, -1.1
- OC1(c2ccc(F)cc2)CCNC1 (stereo unspecified)
→ 0.31, -0.33
- CCC1(C)CC(CCNCc2ccc(N(C)C)cc2)(c2ccc(F)cc2)CCO1 (stereo unspecified)
→ 0.54, 0.94
- O=C(c1cc(F)ccc1F)C1CCCN(Cc2ccc3nonc3c2)C1 (stereo unspecified)
→ 0.06, 3.2
- CN1CCN(Cc2ccc3ccccc3c2)CC1
→ 1.7, -0.3
- CCCCn1c(N)c(C(=O)OCCOC)c2nc3ccccc3nc21
→ 0.96, -1.9
- Cc1ccccc1N1C(=O)/C(=C/c2ccco2)C(=O)NC1=S
→ 3.3, 0.1
- Cc1ccc(S(=O)(=O)NP(=O)(Oc2ccccc2)Oc2ccccc2)cc1
→ 1.3, -1
- O=C(O)C1C2CCC(O2)C1C(=O)Nc1ccc(Cl)cc1 (stereo unspecified)
→ 0.33, 1.7
- CN(C(=O)c1ccco1)C1(c2ccccc2Cl)CCCCC1=O (stereo unspecified)
→ 0.9, 0.1
- CCCCCCCC(=O)NC(Oc1ccccc1[N+](=O)[O-])C(Cl)(Cl)Cl (stereo unspecified)
→ 0.16, -1.6
- Cn1cc([N+](=O)[O-])c(C(=O)Nc2ccc3c(C(F)(F)F)cc(=O)oc3c2)n1
→ 0.04, -0.08
- COC(=O)c1c(C)[nH]c(C(=O)C(C)[N+]23CCN(CC2)CC3)c1C (stereo unspecified)
→ 1.8, -0.06
- O=C(Nc1ccccc1)NC1CC2CCC(C1)N2 (stereo unspecified)
→ 0.01, -0.04
- COC(=O)N(C)c1ccc(C(O)(C(=O)OC)C(F)(F)F)cc1 (stereo unspecified)
→ 2.2, -0.17
- O=c1[nH]c2ccccc2n1C1CCN(CCCC(c2ccc(F)cc2)c2ccc(F)cc2)CC1
→ 0.05, -0.95
- O=c1[nH]c(=S)[nH]c(O)c1N=Nc1ccc2c(c1)OCCO2
→ 0.12, 0.04
- CCC(=O)C(CCN1CCOCC1)(c1ccccc1)c1ccccc1
→ 0.68, 0.32
- COc1cc(O)cc2c1C(=O)OC(C)CCCC(=O)CCC/C=C\2 (stereo unspecified)
→ 1.3, 2.5
- CC(O)(CS(=O)(=O)c1ccccc1)C(=O)Nc1cccc(C(F)(F)F)c1 (stereo unspecified)
→ 0.27, -2.2
- CSc1ccc(CNC2CN3CCC2CC3)cc1 (stereo unspecified)
→ 0.01, -1.2
- CCC(C)N=Cc1c(O)n(-c2ccccc2)c(=O)[nH]c1=O (stereo unspecified)
→ 0.82, -0.95
- N#CCC(=O)NN1Cc2ccccc2C1=N
→ 0.03, -0.77
- CCCCCSc1cc(OC)c(CCN(C)C)cc1OC
→ 0.11, 0.43
- Cc1cccc(OP(N)(N)=O)c1C
→ 0.89, -0.55
- C(=NC12CN3CN(CN(C3)C1)C2)c1cccs1
→ 0.68, 1.1
- CC1CCC[C@H](O)CCCCCc2cc(O)cc(O)c2C(=O)O1 (stereo partly specified)
→ 0.83, -0.66
- COC(=O)C1=C(c2ccccc2)C[C@@H]2CC[C@H]1N2C(=O)N1CCOCC1
→ 0.01, 0.23
- COc1cccc(-n2c(=S)[nH]c3ccccc3c2=O)c1
→ 0.15, 0.87
- CC12CN3CC(C)(CN(C1)C3c1ccco1)C2=O (stereo unspecified)
→ 0.01, 0.22
- O=c1[nH]c(=S)n(C2CC2)c(O)c1C=Nc1cccc(C(F)(F)F)c1
→ 0.37, -0.24
- CCCCn1c(=O)c(C=Nc2cccnc2Cl)c(O)n(CCCCl)c1=O
→ 0.44, 0.81
- CCC(=O)c1cn(Cc2ccccc2)c2ccccc12
→ 2.1, -1.2
- Cc1nn(Cc2ccccc2)c(C)c1C(=O)OCC(=O)Nc1cccc(S(N)(=O)=O)c1
→ 0.66, 1.6
- CCC(C)NC(=O)CN1C(=O)CN=C(c2ccccc2)c2ccccc21 (stereo unspecified)
→ 0.04, 1.8
- COc1ccc(OC)c(N2C(=O)NC(=O)C3(Cc4cc(C)ccc4N(C)C3)C2=O)c1 (stereo unspecified)
→ 0.08, -2.9
- CN1CCN(Cc2cn3cccnc3n2)CC1
→ 0.47, 0.11
- CC(C)c1ccc(-n2c(O)c(C=NCCN3CCNCC3)c(=O)[nH]c2=S)cc1
→ 0.44, 0.87
- CCOc1ccc(/C=C2/C(=O)NC(=O)N(CCc3ccc(F)cc3)C2=O)cc1
→ 2.3, -1.5
- CCOC(=O)/C(=N\Nc1ccccc1)N1CC1
→ 1.2, -0.29
- CCN(CC)c1ccc(N=Cc2c(O)n(CCc3ccc(OC)c(OC)c3)c(=O)[nH]c2=O)cc1
→ 3.7, 0.01
- C=CCn1c(O)c(C(CC)=NCCC2=CCCCC2)c(=O)[nH]c1=O
→ 0.69, -0.82
- CCN1CCN(C(=O)Cc2coc3ccc4ccccc4c23)CC1
→ 0.54, -0.06
- Cc1ccc2c(c1)C1CN(C)CCC1N2C(=O)COc1ccc(S(=O)(=O)N2CCOCC2)cc1 (stereo unspecified)
→ 1.4, -1.8

Reprinted from the part before: 2 compounds; new compounds follow.
The line under a structure holds: KCNQ2 pot, KCNQ2 pot baseline
- CCN1CCN(C(=O)Cc2coc3ccc4ccccc4c23)CC1
→ 0.54, -0.06
- Cc1ccc2c(c1)C1CN(C)CCC1N2C(=O)COc1ccc(S(=O)(=O)N2CCOCC2)cc1 (stereo unspecified)
→ 1.4, -1.8
- CN1CCN(c2ccc(N)cc2Cl)CC1
→ 0.28, 1.1
- CCN(CC)CCCN=C(C)c1c(O)n(-c2ccc(C)cc2)c(=O)[nH]c1=O
→ 0.67, 1.2
- CC(Cc1ccccc1Sc1ccc(O)cc1)N(C)C (stereo unspecified)
→ 0.28, 0.07
- CC1C2Cn3c(nc4ccccc43)C1N(C)O2 (stereo unspecified)
→ 1.2, -0.03
- CCN1CCN(C(=O)COc2ccc(S(=O)(=O)N3CCOCC3)cc2C)CC1
→ 0.36, -0.16
- OC(c1ccccc1)(c1ccccc1)C1CCCN1 (stereo unspecified)
→ 0.2, 1
- COc1ccccc1N1CCN(Cc2ccccc2)CC1
→ 1.2, -3.2
- CC(C)c1ccc(-n2c(O)c(C=NC(CCS(C)=O)C(=O)O)c(=O)[nH]c2=S)cc1 (stereo unspecified)
→ 0.14, 1.4
- CCOC(=O)c1cn2nc(OP(=S)(OCC)OCC)cc2nc1C
→ 0.05, -2.6
- CC(=O)c1cccc(NC2=NCC(C)S2)c1 (stereo unspecified)
→ 1.1, 0.86
- O=c1[nH]c(=S)n(-c2ccccc2)c(O)c1C=NCCN1CCNCC1
→ 0.3, -0.81
- COc1ccc(OCCOc2cccc(C=C3C(=O)NC(=O)NC3=O)c2)cc1
→ 0.09, 0.07
- CC(=O)O[C@@]12CO[C@@H]1C[C@H](OC1OCC(O)C(O)C1O)[C@@]1(C)C(=O)[C@H](O)C3=C(C)[C@@H](OC(=O)[C@H](O)[C@@H](NC(=O)c4ccccc4)c4ccccc4)C[C@@](O)([C@@H](OC(=O)c4ccccc4)C12)C3(C)C (stereo partly specified)
→ 0.98, -0.02
- CN1CCN(Cc2ccc(OC(F)(F)F)cc2)CC1
→ 1.7, 0.01
- O=c1[nH]c(=O)n(CCC2=CCCCC2)c(O)c1/C=N/Nc1ccccc1
→ 0.02, -2.3
- Cn1c(N2CCNCC2)nc2ccccc21
→ 0.22, -0.16
- COc1cc(OC)c(OC)cc1CNCCc1cccc(F)c1
→ 0.68, -0.04
- CC(C)CCn1c(=O)c(C(=O)NCc2ccco2)c(O)c2ccccc21
→ 1.1, -0.24
- O=C1NC(=O)N(Cc2ccccc2)C(=O)/C1=C/c1cnc(-c2ccccc2)nc1
→ 1.3, 0.03
- CNC(C(=O)c1ccccc1)C(OC)c1ccc(C)cc1 (stereo unspecified)
→ 0.08, 0.32
- C1CC2NCCC3NCCC(N1)N32 (stereo unspecified)
→ 1.1, 0.21
- COc1ccc(NC(=O)[C@@H](NC(=O)N2C[C@H]3C[C@@H](C2)c2cccc(=O)n2C3)C(C)C)cc1
→ 0.18, -0.1
- O=C(/C=C/c1ccc(F)cc1)NC(=S)N1C[C@H]2C[C@H](C1)c1cccc(=O)n1C2
→ 0.24, -0.41
- Clc1cc(Cl)cc(NC2=NCCS2)c1
→ 3.6, -2.1
- CCN1CCN(c2ccc(N)cc2)CC1
→ 0.52, -3.6
- CN1CCN(c2nc(N)c(Br)c(Cl)n2)CC1
→ 1.1, 6.7
- CCCC/C(=N/O)c1c(C)[nH]c2ccccc12
→ 1, 1.2
- CN1CN=C(N[N+](=O)[O-])N(Cc2ccco2)C1
→ 0.67, 0
- Cc1ccc2cc(CNCCc3ccccc3C)c(=O)[nH]c2c1
→ 1.1, 0.76
- CC(=O)c1c(C)n(Cc2ccccc2)c2ccc(O)cc12
→ 0.05, -1.4

Of the compounds above, these have a nitro group on carbon:
The line under a structure holds: KCNQ2 pot, KCNQ2 pot baseline
- CCCCCCCC(=O)NC(Oc1ccccc1[N+](=O)[O-])C(Cl)(Cl)Cl (stereo unspecified)
→ 0.16, -1.6
- Cn1cc([N+](=O)[O-])c(C(=O)Nc2ccc3c(C(F)(F)F)cc(=O)oc3c2)n1
→ 0.04, -0.08

Additional records
The line under a structure holds: KCNQ2 pot, KCNQ2 pot baseline
- Cc1ccc(-n2c(O)c(/C=N/N3CCCCCC3)c(=O)[nH]c2=O)cc1C
→ 1, -0.74
- Cc1ccc(CN(Cc2ccccc2)C(=S)NCC(=O)N2CCC3(CC2)OCCO3)o1
→ 0.74, 1.6
- Cc1cc(OCC(=O)NC(Cc2ccc(Cl)cc2)C(=O)O)c2c3c(c(=O)oc2c1)CCCC3 (stereo unspecified)
→ 0.64, -0.76
- CCNC(=O)C1OC(n2cnc3c(N)ncnc32)C(O)C1O (stereo unspecified)
→ 0.85, 0.75
- O=C(COC(=O)Cc1ccccc1)Nc1ncc(Cl)cc1Cl
→ 0.51, -1
- CCN(CC)C(=O)c1ccc(NC(=O)CN2CCc3cc(OC)c(OC)cc3C2)cc1
→ 1.3, 1.1
- CC(=O)N1CCC(N2CCCC(C(=O)c3cccc(Cl)c3)C2)CC1 (stereo unspecified)
→ 1.2, -0.33
- CCn1c(O)c(N=Nc2ccc(S(=O)(=O)N3CCOCC3)cc2)c(=O)n(CC)c1=S
→ 2.4, -1.7
- O=C1C2C3CCC(O3)C2C(=O)N1CCO (stereo unspecified)
→ 1.5, 0.66
- CNCC1(c2ccccc2)CCCC1
→ 0.94, -0.39
- O=C1OCCN1P(=O)(c1ccccc1)c1ccccc1
→ 2.2, -1.8
- N=C(N)c1c(O)n(C2CCCCC2)c(=O)n(C2CCCCC2)c1=O
→ 1.1, -0.67
- CCOC(=O)C(O)(c1ccc(N(CC)C(=O)COc2ccccc2)cc1)C(F)(F)F (stereo unspecified)
→ 0.54, -2.9
- C1CCC2S[C@H]3CCCCC3NC2C1 (stereo partly specified)
→ 1.2, 0.03
- Cc1cccc(NC(=O)N2CC3CC(C2)c2cccc(=O)n2C3)c1 (stereo unspecified)
→ 0.08, -0.47
- CC(C(=O)N1CCC2(CC1)OCCO2)C1Sc2ccccc2NC1=O (stereo unspecified)
→ 0.94, -1.1
- O=c1c2cc(Br)ccc2[nH]c(=S)n1-c1ccccc1
→ 0.06, 0.37
- Fc1ccc(Cn2nnnc2CN2CCC(n3nnc4cc(C(F)(F)F)ccc43)CC2)cc1
→ 1.2, -0.4
- COc1ccc(-n2c(O)c(C(C)=NCCc3c[nH]c4ccccc34)c(=O)[nH]c2=O)cc1
→ 0.8, 0.62
- O=C(Cc1ccccc1)NC(Cc1ccc(Cl)cc1)C(=O)O (stereo unspecified)
→ 0.69, -0.01
- Cc1cc(N2C(=O)C3CCCN3C2c2sccc2C)no1 (stereo unspecified)
→ 1.3, 0.31
- CC(=O)O[C@H]1C(=O)[C@@]2(C)C([C@H](OC(=O)c3ccccc3)[C@]3(O)C[C@H](O)C(C)=C1C3(C)C)[C@]1(OC(C)=O)CO[C@@H]1C[C@H]2O (stereo partly specified)
→ 0.79, 1.3
- CC(=O)c1cn(Cc2ccccc2F)c2ccccc12
→ 1.8, 0.38
- CCOC(=O)C1C2NC(=O)N(Cc3ccccc3)C1(C)Oc1c(OC)cccc12 (stereo unspecified)
→ 0.77, -0.61
- N[C@@H](CCl)C(=O)O
→ 0.23, 0.78
- CCC(=O)O[C@@H]1[C@@H](OC(C)=O)[C@@]2(O)C(C[C@H](O)C2(C)C)[C@](C)(O)[C@H]2CC[C@@H]3[C@@H](O)[C@]12C[C@@]3(C)O (stereo partly specified)
→ 0.43, -0.21
- CCOC(=O)c1c(C=O)c2ccccc2n1Cc1ccccc1F
→ 0.47, 0.74
- O=[N+]([O-])c1ccc(N2CCNCC2)c2ncccc12
→ 0.6, 0.13
- CCc1cc2c(s1)NC(=O)CN=C2c1cccs1
→ 0.63, -1.1
- C[N+]1(C)C2CCC1CC(OC(=O)C(CO)c1ccccc1)C2 (stereo unspecified)
→ 0.04, -0.18
- CC1CN=C(Nc2ccc(N(C)C)cc2)S1 (stereo unspecified)
→ 0.08, 1.8
- O=c1[nH]c(=O)n(-c2cccc(Cl)c2)c(O)c1C=NCCN1CCCCC1
→ 0.03, -0.09
- COCC(C)OC(=O)c1c(N)n(Cc2ccco2)c2nc3ccccc3nc12 (stereo unspecified)
→ 0.01, 0.27
- CCOc1ccc(Br)c(C2(O)CC(C)N(C)CC2C)c1 (stereo unspecified)
→ 0.47, 0.03
- O=C1NC(=O)C(=Cc2ccc(-c3ccc(S(=O)(=O)N4CCOCC4)cc3)o2)C(=O)N1
→ 0.04, 0.64
- CCC(C)n1c(C)cc(C(N)=O)c1C (stereo unspecified)
→ 0.21, -0.17
- CCn1c(=O)cc(OCC(=O)N2CCN(Cc3ccc4c(c3)OCO4)CC2)c2ccccc21
→ 0.26, -2

Only part of the results is shown; rates above refer to the full screens.
